# Mtb growth = M. tuberculosis H37Rv growth inhibitors, H37Rv strain (AID 1626) | one-dose inhibition, % at 10 µM; IC50 in µM for titrated hits | M. tuberculosis H37Rv growth inhibition; higher % means a stronger effect | 220,000 tested, 0.95% active;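 active = confirmed in a dose series; inconclusive = inhibition above 80% but not taken into the dose series; inactive = below 80% or under 30% at every dose of the series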;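 also: bacteria incubated seven days before Alamar blue readout; 0% = bacteria only wells and 100% = bacteria with antibiotic wells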
# Arbovirus inh = antivirals against arbovirus infection, primary screen, cell-based, full library, 10K replicate subset | inhibition, % at 10 µM | 200,000 tested, 0.37% active | arbovirus infection cell-based antiviral screen;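 active = inhibition from about 30%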;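 also: bluetongue infection of BSR cells; cell survival read as ATP light after 72 h; 0% = infected wells without compound and 100% = uninfected wells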
# Mtb bLac sens = beta-lactam sensitization of Mtb H37Rv, H37Rv | M. tuberculosis H37Rv growth with meropenem, percent inhibition; hits of this screen are not shown here | inhibition, % at 25 µM | 330,000 tested, 0.27% active | AID 434955, 2010;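 active = about 74% or more and at least 40 points above the plate without the antibiotic, then above 30% in a dose series; inconclusive = first-round hits that could not be retested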;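 also: growth measured after seven days incubation then overnight dye step; 0% = bacteria only wells and 100% = bacteria with antibiotic; twin plates without the antibiotic show which effects depend on it; some results filed as inactive read as strong as hits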
# RecA intein inh = Mtb RecA intein splicing inhibitors, primary screen, biochemical, fluorescence, HTS. Protein RecA (Mycobacterium tuberculosis (strain ATCC 25618 / H37Rv)), P9WHJ3. cell-free RecA intein splicing. inhibition, %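 (about 9 µM by stock and volumes)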. 290,000 tested, 0.75% active; in the data active = inhibition above about 30%; inconclusive = no clear call, values can overlap the other calls;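 also: 0% = vehicle wells and 100% = reference inhibitor control wells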
# Target sequence (P9WHJ3 whole entry, looked up): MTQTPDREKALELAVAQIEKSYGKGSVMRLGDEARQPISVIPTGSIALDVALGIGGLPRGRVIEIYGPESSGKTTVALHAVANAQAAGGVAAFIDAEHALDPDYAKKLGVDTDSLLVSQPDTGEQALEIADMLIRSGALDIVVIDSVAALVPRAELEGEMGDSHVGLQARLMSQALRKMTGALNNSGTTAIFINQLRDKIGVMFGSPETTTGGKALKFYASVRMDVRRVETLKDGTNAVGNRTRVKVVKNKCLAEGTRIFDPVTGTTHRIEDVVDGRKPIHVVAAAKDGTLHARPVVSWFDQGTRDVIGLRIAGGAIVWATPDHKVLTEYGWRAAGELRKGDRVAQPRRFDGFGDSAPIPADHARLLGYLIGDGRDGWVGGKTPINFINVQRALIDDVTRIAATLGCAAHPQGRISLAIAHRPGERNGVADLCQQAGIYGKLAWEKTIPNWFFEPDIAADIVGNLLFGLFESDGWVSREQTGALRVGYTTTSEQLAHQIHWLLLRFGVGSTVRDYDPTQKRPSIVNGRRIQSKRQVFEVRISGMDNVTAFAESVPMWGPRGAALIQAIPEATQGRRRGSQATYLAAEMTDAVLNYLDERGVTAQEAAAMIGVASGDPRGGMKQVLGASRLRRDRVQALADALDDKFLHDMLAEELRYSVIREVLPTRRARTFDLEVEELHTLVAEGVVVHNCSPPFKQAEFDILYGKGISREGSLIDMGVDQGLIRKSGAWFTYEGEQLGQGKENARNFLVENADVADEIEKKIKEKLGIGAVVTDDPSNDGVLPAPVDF
# YopH PTP inh = YopH tyrosine phosphatase inhibitors, primary screen, biochemical, fluorescence Ex485/Em525 | YopH tyrosine phosphatase [Yersinia enterocolitica] | inhibition, %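 (about 10 µM by stock and volumes)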 | 140,000 tested, 0.16% active;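 active = inhibition of 50% or more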;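 also: controls were vehicle for no effect and minimum signal wells for full effect; inactives centre near -20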
# Arbovirus inh repeat = second read-out of Arbovirus inh, no call of its own (marks repeat the call); inhibition, %; measured here: 10K subset replicate screen; many hits read low in the repeat;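 first of two repeat runs on a subset; 0% = infected and 100% = uninfected wells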
# * marks the source's active call; other numbers are inactive results; ? = inconclusive; / = no result given; & = joins results of further samples.
SMILES,Mtb growth,Arbovirus inh,Mtb bLac sens,RecA intein inh,YopH PTP inh,others
COc1cccc(/C=N/NC(=O)c2ccc(-c3ccccc3)cc2)c1O,12%,-32,2,-5.4,-12,
CC(=O)Nc1ccc(NC(=O)CN(c2ccc(C(C)C)cc2)S(=O)(=O)c2ccccc2)cc1,4%,-15,0,0.6,/,
CCOc1ccc(OCC)c(NC(=O)C2CCCN(S(=O)(=O)c3cnc[nH]3)C2)c1 (stereo unspecified),-5%,5,-1,/,-39,
COCCn1nnnc1C(c1ccccn1)N1CCN(c2cc(C)ccc2C)CC1 (stereo unspecified),-12%,2,-7,1.0,-40,
O=C(Nc1nccs1)c1ccccc1[N+](=O)[O-],0%,-12,7,-2.0,-26,
O=C(Nc1cccc([N+](=O)[O-])c1)c1ccn[nH]1,0%,2,-5,0.7,/,
O=C1CCC(=O)N1CCOP1(=O)COc2ccccc2OC1,-8%,-1,2,2.4,-39,
O=C(C1CCN(S(=O)(=O)c2ccccc2)CC1)N(CCc1ccccc1)Cc1ccco1,-8%,-1,-1,9.1,-41,
Cc1cc(NC(=O)Cc2cccs2)no1,/,10,-8,/,-2,
COC(=O)Cn1cc(/C=N/NC(=O)COc2cccc3cccnc23)c2ccccc21,3%,1,0,0.9,-28,
CCNC(=O)NC(=O)CSc1cccc(C(F)(F)F)c1,5%,-6,-1,-2.0,-32,
CCc1nnc(SCC(=O)Nc2nccs2)n1CC,/,/,2,-0.1,/,
CC(=O)Cc1nsc(Nc2ccc(F)cc2)n1,-1%,4,0,-1.1,/,
CC1=C(C(=O)OCC(Br)(Br)Br)C(c2ccc(Br)cc2)NC(=O)N1CCCC(=O)O (stereo unspecified),-6%,6,/,/,-40,
CC(=O)n1cc(N(C(=O)CCl)c2ccc(Cl)cc2)c2ccccc21,8.9µM*,/,99,59*,/,
Cc1nn(C)c(C)c1/C=C1/CC2C3CC=C4CC(O)CCC4(C)C3CCC2(C)C1=O (stereo unspecified),-5%,-31,0,-1.1,-6,
Nc1cccc(CCc2nc3cc4ccccc4cc3[nH]2)c1,1%,-18,1,-3.4,-13,
COCCNC(=O)c1ccc(NS(=O)(=O)c2ccc3[nH]c(=O)[nH]c3c2)cc1,/,/,0,0.5,/,
Cc1nn(CCCC(=O)NCc2ccccc2Cl)c(=O)c2nccn12,/,/,-6,-0.9,/,
O=C(Cc1c(Cl)cccc1Cl)Nc1ccncc1Cl,/,/,0,-0.3,/,
C=CCn1c(SCC(=O)NC23CC4CC(CC(C4)C2)C3)nc2cc(C(=O)O)ccc2c1=O,-5%,16,-3,3.0,/,
CCc1sc(NC(=O)COC)nc1-c1ccccc1,-10%,4,-1,2.6,-55,
CSc1ccc(C2c3[nH]c4ccccc4c3CCN2C(=O)c2cc(C)n(C)n2)cc1 (stereo unspecified),-2%,-3,74,8.0,/,
CC(C)Cn1c(SCC(=O)NC(=O)Nc2ccc3c(c2)OCCO3)nc2ccccc2c1=O,-2%,-8,-1,-1.1,-23,
CC(=O)Nc1cc2c(nc1C)nc(C)n2Cc1ccc(Br)cc1,/,3,10,-0.2,-1,
CC(C)(C)c1nnc(NC(=O)C2CCN(c3ncccn3)CC2)s1,-3%,2,-4,1.6,13,
CCN1CCN(c2ccc(NC(=O)COc3ccc([N+](=O)[O-])cc3)cc2)CC1,/,/,-9,-2.7,/,
COc1ccc2cc(Br)ccc2c1CC(=O)N1CCCC1,/,/,-3,-0.5,/,
Cn1nnc(NC(=O)c2cccc([N+](=O)[O-])c2)n1,-5%,/,-6,4.7,/,
Cc1ccc(C2(C)NC(=O)N(CC(=O)NCc3ccccc3Cl)C2=O)cc1 (stereo unspecified),/,/,3,0.5,/,
Nc1ccc(C#Cc2c(-c3ccsc3)oc3ccc(N4CCOCC4)cc23)cc1,61%,/,70,1.6,/,
COc1ccc(NC(=S)N2CCN(CCN=CC3=C(O)CC(c4ccccc4)CC3=O)CC2)cc1 (stereo unspecified),-1%,6,-3,-3.0,-18,
Cc1ccc(N2C(=O)N3[C@H](c4cccc(C)c4)[C@@H]4C(=O)N(Cc5ccccc5)C(=O)[C@@H]4[C@]3(C)C2=O)cc1,/,/,-5,-1.4,/,
C=CCN(C(=O)CNC(=O)c1ccco1)C(C(=O)NC1CCCCC1)c1ccccc1 (stereo unspecified),-3%,6,-9,1.4,-51,
Brc1ccc(OCCOCCOc2cccc3cccnc23)cc1,4%,/,-5,2.5,-30,
COC(=O)c1ccc(C(=O)OC)c(NC(=O)CN2CCN(c3ccccc3OC)CC2)c1,72%,14,84,2.1,-27,
Cc1cc(C)n(CCCC(=O)O)n1,-8%,5,-4,-2.2,/,
COc1ccc(Cl)cc1Nc1nc(C)cc(=O)[nH]1,2%,2,8,-0.7,-37,
Cc1ccc2nc3n(c(=O)c2c1)CCC3,1%,2,3,0.7,-33,
COCCN(C(=O)COC(=O)/C=C/c1ccc(OC)c(OC)c1)c1c(N)n(Cc2ccccc2)c(=O)[nH]c1=O,/,/,-4,-1.9,/,
N#Cc1cccc(NC(=O)CCNC(=O)c2ccccc2Cl)c1,/,/,-5,-0.2,/,
Cc1cccc(-n2ncc3c(NCCCO)ncnc32)c1,7%,-2,-11,-0.6,-40,Arbovirus inh repeat=-12
Cc1ccc(NC(=O)CSc2nc(O)c(Cc3ccccc3)c(=O)n2-c2ccccc2)cc1,-2%,6,-3,6.0,-14,
Cc1ccc(/C=C/C(=O)NCC2COc3ccccc3O2)o1 (stereo unspecified),4%,9,7,7.6,/,
COCC1CCN(C(=O)c2cc(COc3ccc4c(c3)CCCC4)on2)C1 (stereo unspecified),/,/,3,0.2,/,
Cc1cccc(N(Cc2cc3ccccc3[nH]c2=O)S(=O)(=O)c2ccccc2)c1,-3%,-1,-2,-2.5,-19,
O=C(NCC(c1cccs1)N1CCOCC1)c1ccccc1NS(=O)(=O)c1cccc([N+](=O)[O-])c1 (stereo unspecified),-8%,13,1,-0.5,-24,
Cn1c(CCc2nc3ccccc3[nH]2)n[nH]c1=S,-10%,4,2,-1.1,/,
Cc1ccc(-n2cnc3cc(NCc4cccs4)ccc32)cc1,0%,-5,97,20,4,
CCOc1ccc(C(C(=O)NCC2CCCO2)N(C(=O)c2snc(C(N)=O)c2N)c2ccccc2F)cc1 (stereo unspecified),/,/,1,-4.8,/,
# The list goes on.
SMILES,Mtb growth,Arbovirus inh,Mtb bLac sens,RecA intein inh,YopH PTP inh,others
Cc1ccc(C2CCN(C(=S)NC3CCCCC3)C2)cc1 (stereo unspecified),-2%,10,-2,1.9,/,
Cc1ccccc1C(=O)N1N=C(c2ccc(NS(C)(=O)=O)cc2)CC1c1cccs1 (stereo unspecified),/,/,-2,6.0,/,
COc1ccc(C(=O)CSc2nnc(CNc3nc(-c4ccccc4)cs3)n2C)cc1,10%,3,-11,2.1,-41,
O=C(CN1CCOCC1)Nc1nc2ccc([N+](=O)[O-])cc2s1,-11%,-6,10,3.2,/,
COc1ccccc1C1CC(c2ccc(Br)cc2)=NN1C(=O)c1cccnc1 (stereo unspecified),9%,-15,9,19,-22,
Cc1nnc(SCC(=O)NC(=O)NCc2ccco2)n1Cc1ccccc1,1%,2,-2,5.0,-3,
Cc1ncoc1C(=O)N1CCCC(C(=O)c2ccc(Oc3ccccc3)cc2)C1 (stereo unspecified),6%,7,4,3.0,/,
Brc1ccc(C2Nc3cccc4cccc(c34)N2)s1,25%,-17,0,/,3,
Cc1ccnc(NC(=O)c2cccc(S(=O)(=O)N3CCCc4ccccc43)c2)c1,/,/,3,10,/,
COC(=O)Nc1ccc(S(=O)(=O)N2CCN(c3ccc(F)cc3)CC2)cc1,-7%,5,2,2.0,-23,
Cc1ccc(C(=O)N=c2sccn2C)cc1C,/,/,3,-1.0,/,
Cn1c(SCc2ccc([N+](=O)[O-])cc2)nnc1-c1ccncc1,/,/,-4,1.2,/,
O=Cc1ccc(OCC(=O)NC(=O)NC2CCCCC2)cc1,5%,6,3,1.2,0,
Cc1onc(-c2c(Cl)cccc2Cl)c1C(=O)OCC(=O)c1ccccc1,-1%,/,-11,14,/,
COc1ccc(NC(=O)CSc2nnc(C3CC3)n2N)cc1,-4%,8,-3,-0.8,-41,
COC(=O)COc1ccc2c(=O)c(-c3ccccc3)coc2c1,?,/,100,-0.5,/,
NS(=O)(=O)c1cccc(NC(=O)CC23CC4CC(C2)CC(CC(=O)Nc2cccc(S(N)(=O)=O)c2)(C4)C3)c1,/,/,-6,0.2,/,
C/C(=N\Nc1cccc(C(=O)O)c1)c1cc2ccccc2o1,14%,5,2,/,/,
CC(CC(=O)Nc1ccccc1)NCCCN1CCCC1=O (stereo unspecified),/,/,-6,-0.2,/,
Cc1ccc(C2(C)NC(=O)N(CC(=O)NC(=O)NCCC(C)C)C2=O)cc1 (stereo unspecified),9%,-8,32,-2.9,12,
Cc1cc(C)cc(NC(=O)C2CCCN2C(=O)NC2CCCCC2)c1 (stereo unspecified),-4%,-9,-4,-2.3,/,
Cc1cc2[nH]c(=O)c(=O)[nH]c2cc1S(=O)(=O)N1CCN(c2ccccc2)CC1,/,/,2,-4.0,/,
CCOC(=O)CCC(=O)Nc1ccc([N+](=O)[O-])cc1C,0%,4,1,0.5,/,
O=C1CSC(=S)N1,/,/,-9,-1.6,/,
COC(=O)c1sc(S(=O)(=O)N2CCN(CCO)CC2)c(C(=O)OC)c1C,4%,1,-13,-2.0,/,
COc1ccc(CCCC(=O)NCCc2ccccc2)cc1,/,/,5,-0.2,/,
Cc1ccc(CNS(=O)(=O)NCc2ccccc2)cc1,/,3,-8,-3.8,-24,
CC(=O)c1ccc(OCC(=O)Nc2c(C)nn(-c3ccccc3)c2C)cc1,/,/,-4,-5.0,/,
c1ccc2c(c1)C(=NCC1CCCO1)NC2=NCC1CCCO1 (stereo unspecified),-13%,-1,-3,1.6,-22,
COc1ccc(CCNCc2ccc(C)s2)cc1OC,-1%,-2,3,0.2,/,
O=C(NCCC1=CCCCC1)C(=O)NCCc1ccc(Cl)cc1,-1%,0,3,-2.4,/,
O=C(c1ccc(C#Cc2ccccc2)o1)N1CCN(c2ccccn2)CC1,16%,-17,-3,-1.0,-32,
CN(C)CC/C=C1/c2ccccc2COc2ccccc21,-7%&4%,-14,-10,-2.3,/,
O=C(OCCOc1ccccc1Cl)c1ccc(-n2cnnn2)cc1,-8%,-2,-4,4.4,11,
Cc1oc2ccccc2c1CC(=O)NCCCN(C)C,0%,/,0,1.8,/,
CC(=O)OC1CCC2(/C=N/O)C(=CCC3C4CCC(=O)C4(C)CCC32)C1 (stereo unspecified),/,/,2,-1.4,/,
CCn1nc(NC(=O)C(C)(C)C)c2cc3cccc(C)c3nc21,/,/,2,-78,/,
CN1CCCN(c2ccc([N+](=O)[O-])nc2)CC1,/,/,-1,0.5,/,
Cc1ccc(SCC(=O)NC(=O)NCc2ccccc2)c(C)c1,31%,5,12,2.1,-17,
CCn1c(CNc2ccc(OC)cc2)nnc1SCC(=O)Nc1ccc(F)cc1,-11%,6,1,-3.5,-18,
CNc1c([N+](=O)[O-])cnn1-c1ccc(Cl)cc1,4%,6,-2,1.2,-26,
CC(=O)c1c(C)[nH]c(C(=O)OCc2ccccc2)c1C,7%,1,-2,-0.5,-27,
CC(=O)Nc1ccc(CN2CCC(n3nccc3NC(=O)CCc3ccccc3)CC2)cc1,/,/,1,0.8,/,
CCOC(=O)COc1nc(-c2ccc(C)cc2)cc(-c2ccco2)c1C#N,16%,/,13,2.0,/,
CC(C)(Oc1ccc(Cl)cc1)C(=O)NC1CCSC1=O (stereo unspecified),-1%,4,-9,-0.2,41,

# An excerpt from above in order of formula weight, smallest number first.
SMILES,Mtb growth,Arbovirus inh,Mtb bLac sens,RecA intein inh,YopH PTP inh,others
CC(C)(C)c1nnc(NC(=O)C2CCN(c3ncccn3)CC2)s1,-3%,2,-4,1.6,13,
COC(=O)c1sc(S(=O)(=O)N2CCN(CCO)CC2)c(C(=O)OC)c1C,4%,1,-13,-2.0,/,
COc1ccc(NC(=S)N2CCN(CCN=CC3=C(O)CC(c4ccccc4)CC3=O)CC2)cc1 (stereo unspecified),-1%,6,-3,-3.0,-18,

# In the list so far, these have a cyano group:
SMILES,Mtb growth,Arbovirus inh,Mtb bLac sens,RecA intein inh,YopH PTP inh,others
N#Cc1cccc(NC(=O)CCNC(=O)c2ccccc2Cl)c1,/,/,-5,-0.2,/,
CCOC(=O)COc1nc(-c2ccc(C)cc2)cc(-c2ccco2)c1C#N,16%,/,13,2.0,/,

# Assay outcomes deposited in PubChem by several laboratories.

# The list is partial (hit frequency here may not be typical).
